From PubChem
KCNQ2 enhance: potentiators of rat KCNQ2 potassium channel. actives 0.54% (n = 310,000). O88943. B-score at 10 µM. CHO-K1 KCNQ2, FluxOR thallium flux fluorescence; active compounds read high. AID 2239;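 active means fluorescence ratio B-score at least 3 SD of library B-scores, with initial fluorescence B-score within 3 SD, cut at about 5.3 in these data; same plate scores as AID 2156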;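 further: B-score of peak minus minimum over baseline fluorescence ratio after K+ and Tl+ stimulus; positive B-score means potentiation of KCNQ2 with more thallium influx and brighter signal; only the inactives scoring about 0 or higher are listed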
Target sequence (O88943 whole entry, looked up): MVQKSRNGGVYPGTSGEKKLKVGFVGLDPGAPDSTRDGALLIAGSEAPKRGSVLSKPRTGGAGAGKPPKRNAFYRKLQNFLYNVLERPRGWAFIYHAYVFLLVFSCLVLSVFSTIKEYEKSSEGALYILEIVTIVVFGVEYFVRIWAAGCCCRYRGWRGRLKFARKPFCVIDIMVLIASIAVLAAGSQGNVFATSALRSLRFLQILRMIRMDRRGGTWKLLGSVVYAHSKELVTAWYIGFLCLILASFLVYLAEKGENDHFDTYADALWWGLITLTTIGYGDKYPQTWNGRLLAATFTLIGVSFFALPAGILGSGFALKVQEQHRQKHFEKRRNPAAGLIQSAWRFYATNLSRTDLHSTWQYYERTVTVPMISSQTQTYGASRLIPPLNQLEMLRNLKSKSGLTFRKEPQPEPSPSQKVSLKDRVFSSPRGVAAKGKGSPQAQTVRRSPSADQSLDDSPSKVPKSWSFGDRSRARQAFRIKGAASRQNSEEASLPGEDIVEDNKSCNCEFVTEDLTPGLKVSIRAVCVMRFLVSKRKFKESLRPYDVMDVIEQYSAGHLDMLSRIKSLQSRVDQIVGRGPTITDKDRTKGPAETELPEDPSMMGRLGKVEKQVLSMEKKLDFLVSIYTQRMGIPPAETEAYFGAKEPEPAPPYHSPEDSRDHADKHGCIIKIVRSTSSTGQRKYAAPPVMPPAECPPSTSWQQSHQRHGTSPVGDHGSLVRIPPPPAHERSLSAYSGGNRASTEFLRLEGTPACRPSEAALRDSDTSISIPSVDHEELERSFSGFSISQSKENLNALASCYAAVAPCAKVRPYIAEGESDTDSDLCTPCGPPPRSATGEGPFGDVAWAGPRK
KCNQ2 enhance baseline: further read-out of KCNQ2 enhance, marked with its call; B-score; compound at 10 µM; measured here: initial fluorescence intensity artifact check;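 brightness before thallium and not channel activity; 0 = typical well and far values either way flag optical interference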
* marks the source's active call; other numbers are inactive results.

SMILES	KCNQ2 enhance	KCNQ2 enhance baseline
COc1ccc(CN2CCN(Cc3ccc4ccccc4c3)CC2)cc1OC	0.63	1.4
C=C(C)C1Cc2cc3ccc(=O)oc3cc2O1 (configuration not stated)	0.17	0
Cc1nn(C(C)C(=O)NCCC2=CCCCC2)c(=O)c2nn(-c3ccccc3)c(C)c12 (configuration not stated)	1.3	0.41
CC(C)c1ccc(NC(=O)c2cc(S(=O)(=O)N3CCCCC3)c[nH]2)cc1	1.1	0.23
Cc1cccc(NC(=S)N(CCN2CCOCC2)Cc2cc3cc4c(cc3[nH]c2=O)OCCO4)c1	1.2	-0.37
CCOc1ccc(CN(C)C(=O)c2ccc(NS(=O)(=O)c3ccc4[nH]c(=O)[nH]c4c3)cc2)cc1	1.2	-0.02
COc1ccccc1NC(=S)N1CCN(C(=O)c2ccco2)CC1	1.2	1.1
Cc1ccccc1OCC(=O)Nc1nnc(-c2ccco2)s1	2.2	-0.75
O=C(CSc1nc(=O)n2cc(Cl)ccc2n1)NCCc1ccccc1	0.22	0.18
CC(C)OCCCNC(=O)Cc1ccc(Br)cc1	1.4	-0.37
CC(=O)c1sc(N)c(C(=O)OC(C)C)c1C	1.3	-0.46
Cc1nc2ccc(S(=O)(=O)NCC(=O)N3CCN(c4ccccn4)CC3)cc2s1	0.16	-0.51
CCOC(=O)c1c(S(=O)(=O)NCCc2ccco2)c(C)n(C)c1C	0.18	1.3
Clc1ccccc1Cc1noc(CN2CCCCC2c2ccccn2)n1 (configuration not stated)	0.02	0.92
CN(CC(=O)Nc1cccc(F)c1)CC(=O)Nc1ccc(Cl)cc1[N+](=O)[O-]	1.1	-0.4
COc1cc(-c2n[nH]c(=S)n2C(C)c2ccccc2)cc(OC)c1OC (configuration not stated)	0.84	-0.57
COc1ccc(CCC(=O)NCCS(=O)(=O)N2CCN(c3ccccc3OC)CC2)cc1	1.9	-0.68
CC(C)c1ccc(NC2CCCN(C(=O)c3ccccc3-c3ncc[nH]3)C2)cc1 (configuration not stated)	0.43	1.7
Cc1sc(NC(=O)CSc2nnnn2C(C)C)c(C#N)c1C	1.9	0.15
Nc1nonc1-n1nnc(C(=O)N/N=C/c2ccncc2)c1CSc1ccccc1	0.81	-2.3
O=C(NCCCCc1ccccc1)C1CCCC1	0.66	-0.35
COc1ccc2[nH]c(=O)c(CN(C(=O)c3cccnc3)c3cc(C)ccc3C)cc2c1	0.46	0.07
COc1ccc(-c2nc(C#N)c(NCCc3ccccc3)o2)cc1OC	0.76	-0.76
Cn1cc(Cl)c(C(=O)Nc2nc3ccccc3s2)n1	1.4	-1.2
Cc1ccccc1CCN(C(=O)Cn1nnc2ccccc21)C(C(=O)NCC1CCCO1)c1nc2ccccc2n1C (configuration not stated)	0.92	0.65
C=CCN(C(=O)CNS(=O)(=O)c1ccccc1)C(C(=O)NCCOC)c1ccncc1 (configuration not stated)	0.02	0.74
Cc1cccc(C2CC(c3ccccc3)Nc3nc(N)nn32)c1 (configuration not stated)	1.2	-0.39
CCC1(c2ccc(F)cc2)NC(=O)N(CC(=O)NC2CC2)C1=O (configuration not stated)	0.48	-1.9
CCN(CC)CC(C)OC(=O)COc1ccc(OC)cc1 (configuration not stated)	0.91	-0.84
CCCCCCC[C@H](N)[C@H](O)C(=O)N(C)[C@@H](CCS(C)=O)C(=O)N[C@@H](Cc1ccc(O)cc1)C(=O)N[C@@H](Cc1ccc(O)cc1)C(=O)O (some centres not stated)	1.1	-0.01
O=C(CSc1cccc[n+]1[O-])Nc1cc(S(=O)(=O)N2CCOCC2)ccc1N1CCOCC1	0.02	0.1
CC(C)=CC(=O)Nc1ccc(Br)cc1	1.7	-0.1
O=C(Nc1ccccc1)Nc1ccccc1C(=O)NCc1ccco1	0.1	0.51
Nc1[nH]c(N=NC(=O)c2ccc(F)cc2)c2ccccc12	0.14	-0.05
CCOC(=O)c1ccc2ncc(C(=O)OCC)c(NCCN3CCOCC3)c2c1	0.06	-1.6
CC(=O)Nc1ccc(NC(=O)c2ccc(CSc3ccccc3)o2)cc1	0.05	0.01
O=C(O)c1ccc2c(=O)n3c(nc2c1)/C(=C/c1ccc(Cl)c(Cl)c1)CC3	0.67	-0.11
COc1ccc(CCNC(=O)COC(=O)C2CCCCC2)cc1	0.41	0.34
Clc1cccc(/C=N/Nc2nc(Cl)nc3ccccc23)c1	0.05	-2
CCOC(=O)CSc1nc2sc3c(c2c(=O)[nH]1)CC(C)(CC)OC3 (configuration not stated)	0.67	-0.66
COc1ncccc1-c1nnn(-c2ccccc2)n1	0.27	-0.5
Cc1c(CNC2CCCC(C)C2C)c(C(=O)O)c(C)n1Cc1ccccc1 (configuration not stated)	1.3	0.42
NC(=O)CC[C@H](NC(=O)c1ccc(F)cc1)C(=O)OCC(=O)Nc1ccc(N2CCOCC2)cc1	0.72	0.77
COc1ccc(S(=O)(=O)N2CCOC2CNC(=O)C(=O)NCc2ccc3c(c2)OCO3)cc1 (configuration not stated)	0.03	0.44
Cc1nnc(NCc2ccco2)c2ccccc12	1	-0.32
COc1ccc(CN2C(=O)NC3(CCCCCC3)C2=O)cc1F	2.7	-0.78
CC1(OC(=O)c2cccs2)C(=O)C=C2C=C(c3ccsc3)OC=C2C1=O (configuration not stated)	0.48	0.12
O=C(CNC(=O)c1ccc(S(=O)(=O)N2CCCC2)cc1)N/N=C/c1ccccc1	1.6	-0.51
O=[n+]1c2c(n([O-])c3cc(Br)ccc31)CCC2	1.1	0
O=C(NCc1ccon1)c1ccc(OC2CCN(CCc3ccccc3)CC2)cc1	0.02	1.5
The listing continues.
SMILES	KCNQ2 enhance	KCNQ2 enhance baseline
COC(=O)c1cn(-c2ccccc2)nc1-c1cccnc1	1.7	-0.81
CSc1ccccc1NC(=O)c1ccc2c(c1)CCN2S(C)(=O)=O	1.3	0.77
CCOCCCNC(c1ccccc1)c1ccncc1 (configuration not stated)	0.7	2.4
COc1cccc(-c2nnc(SCc3nc4ccccc4[nH]3)n2N)c1	0.43	0.03
COc1ccccc1C(C)NC(=O)Cc1ccsc1 (configuration not stated)	0.03	-1.1
O=C(CN1C(=O)C(=O)N(Cc2ccccc2)C1=O)Nc1cc(Cl)cc(Cl)c1	2.2	-1.7
Cn1cccc1/C=N/NC(=O)c1ccncc1	0.02	-0.23
CCN(CC)S(=O)(=O)c1cccc(-c2nnc(SC(C)C(=O)NCCC3=CCCCC3)o2)c1 (configuration not stated)	0.11	0.07
O=C1NCCN(Cc2ccc(-c3ccccc3)cc2)C1CC(=O)N1CCN(CCO)CC1 (configuration not stated)	2.3	-0.33
CN1C=CC(=C2C(=O)c3ccccc3C2=O)C=C1	0.53	-0.88
CCOC(=O)C1(Cc2ccccc2Cl)CCN(C(=O)CCn2ccnc2C)CC1	0.97	0.07
COCCCNC(=O)CN(c1cccc(Cl)c1)S(C)(=O)=O	1.4	2.1
Cc1ccc(C(=O)C(C)OC(=O)c2ccc(Cl)nc2)cc1 (configuration not stated)	0.15	-0.07
CSC1=NNC(c2ccc(C(C)(C)C)cc2)=NN1	1.5	-0.04
CC(C)c1nc(-c2c(N)n(C)c(=O)n(C)c2=O)sc1C(=O)C(C)(C)C	3.1	1.4
Cc1c(NC(=O)/C(C#N)=C/c2ccc(-c3ccc(Cl)c(Cl)c3)o2)c(=O)n(-c2ccccc2)n1C	0.78	-1.4
COc1ccc(-c2csc(NC(=O)COc3ccc(N(C)S(=O)(=O)c4ccc(C)cc4)cc3)n2)cc1	0.13	1.4
Cc1ccccc1C1=NC(C(F)(F)F)(C(F)(F)F)c2c(n(C)c(=O)n(C)c2=O)N1	1.9	0.07
Cc1nc2ncnn2c(C)c1CCC(=O)NCCC1=CCCCC1	0.09	0.04
C(C#CCCCCCCCCC[n+]1ccccc1)#CCCCCCCCCC[n+]1ccccc1	1.8	-0.77
FC(F)(F)c1cc(C(F)(F)F)c2ccc(N3CCN(c4ccc(Cl)cc4)CC3)nc2n1	1.8	-0.95
CSCCC(N=C1NS(=O)(=O)c2ccccc21)C(=O)NCCc1ccccc1 (configuration not stated)	0.67	0.44
CCNC(=O)COn1c(SCC(=O)NCC)nc2ccccc2c1=O	2	0.18
O=C(NC(NNc1ccc([N+](=O)[O-])cc1)(C(F)(F)F)C(F)(F)F)c1ccc(Cl)cc1	0.32	-1.2
COC(=O)C1SCC2C(=O)N(Cc3ccc(F)cc3)CC(=O)N21 (configuration not stated)	1	-0.03
COc1cc(CNc2ccc(CNc3ncn[nH]3)cc2)ccc1OCC(=O)NC(C)(C)C	0.51	0.24
COc1ccc(NC2=C(C(C)=O)C(c3ccc(OC)cc3)C(C(C)=O)C(C)(O)C2)cc1 (configuration not stated)	1.1	-2.8
COc1ccc(C2(C(=O)NCC3CCCO3)CCOCC2)cc1 (configuration not stated)	1.8	0.8
Cc1nonc1N1CCN(Cc2cn[nH]c2-c2ccc(F)cc2F)CC1	0.78	0
O=C(N/N=C/c1ccc([N+](=O)[O-])cc1)c1ccc2nc[nH]c2c1	0.16	0.39

13 compounds out of the list, sorted by heavy-atom count, rising:
SMILES	KCNQ2 enhance	KCNQ2 enhance baseline
CSC1=NNC(c2ccc(C(C)(C)C)cc2)=NN1	1.5	-0.04
COCCCNC(=O)CN(c1cccc(Cl)c1)S(C)(=O)=O	1.4	2.1
O=C(N/N=C/c1ccc([N+](=O)[O-])cc1)c1ccc2nc[nH]c2c1	0.16	0.39
Cc1nc2ncnn2c(C)c1CCC(=O)NCCC1=CCCCC1	0.09	0.04
CCNC(=O)COn1c(SCC(=O)NCC)nc2ccccc2c1=O	2	0.18
Cc1nonc1N1CCN(Cc2cn[nH]c2-c2ccc(F)cc2F)CC1	0.78	0
CSCCC(N=C1NS(=O)(=O)c2ccccc21)C(=O)NCCc1ccccc1 (configuration not stated)	0.67	0.44
Cc1ccccc1C1=NC(C(F)(F)F)(C(F)(F)F)c2c(n(C)c(=O)n(C)c2=O)N1	1.9	0.07
O=C(NC(NNc1ccc([N+](=O)[O-])cc1)(C(F)(F)F)C(F)(F)F)c1ccc(Cl)cc1	0.32	-1.2
COc1ccc(NC2=C(C(C)=O)C(c3ccc(OC)cc3)C(C(C)=O)C(C)(O)C2)cc1 (configuration not stated)	1.1	-2.8
COc1cc(CNc2ccc(CNc3ncn[nH]3)cc2)ccc1OCC(=O)NC(C)(C)C	0.51	0.24
Cc1c(NC(=O)/C(C#N)=C/c2ccc(-c3ccc(Cl)c(Cl)c3)o2)c(=O)n(-c2ccccc2)n1C	0.78	-1.4
COc1ccc(-c2csc(NC(=O)COc3ccc(N(C)S(=O)(=O)c4ccc(C)cc4)cc3)n2)cc1	0.13	1.4

Next entries follow:
SMILES	KCNQ2 enhance	KCNQ2 enhance baseline
CC(=O)c1cccc(NC(=O)C(C)OC(=O)CCN=C2NS(=O)(=O)c3ccccc32)c1 (configuration not stated)	0.41	0.57
O=C(N/N=C/c1ccc(Br)s1)c1ccccn1	1.6	0.1
Cc1csc2ncc(C(=O)NCCc3ccccc3)c(=O)n12	0.39	-2
Nc1nonc1-n1nnc(C(=O)N/N=C/c2ccc3c(c2)OCO3)c1CSc1ccccc1	0.93	1.6
CC1CC(CN)CC(CO)C1 (configuration not stated)	0.26	0.37
COc1ccc(OC)c(S(=O)(=O)NCc2cn3c(C)csc3n2)c1	0.55	0.8
O=C(OC1CCCCC1)c1ccc(NC(=O)C2CCCCC2)cc1	0.71	0.19
O=C(Nc1ccc(Cl)cc1)c1csc(-c2ccccc2)n1	0.5	0.43
O=C(Nc1c(C(=O)N2CCC(N3CCCCC3)CC2)oc2ccccc12)c1c(F)cccc1F	0.92	-0.84
O=C(NCc1ccccc1Cl)c1cc([N+](=O)[O-])ccc1Cl	0.33	-0.08
COc1ccc(C(=O)NCC(=O)OCC(=O)Nc2ccc(C)c(S(=O)(=O)N(C)C)c2)cc1OC	2.2	-1.8
Cc1ccc2[nH]c3c(NCCN4CCOCC4)ncnc3c2c1	1	0.32
CN1CCCC(n2nc(Cc3ccc(Cl)cc3)c3ccccc3c2=O)CC1 (configuration not stated)	1.3	0.73
COC(=O)c1ccccc1NC(=O)N1CCc2ccc(NC(=O)c3ccccn3)cc2C1	0.81	-0.33
CCn1c2ccccc2c(=O)c2ccccc21	0.86	-1.8
CN1CCN(/N=C/c2nc(-c3cccc([N+](=O)[O-])c3)n3ccccc23)CC1	0.82	-1.1
Cc1ccc(C(=O)CSc2nnc(-c3ccco3)n2CC2CCCO2)cc1 (configuration not stated)	0.51	-1.2
Cc1cc(C)cc(OCC(=O)Nc2ccccc2C(=O)N2CCOCC2)c1	0.39	-0.66
COC(=O)c1ccc(OC(=O)c2ccccc2F)cc1	1.6	1
O=C(Nc1ccc2ccccc2c1)c1ccc2[nH]c(=O)c(=O)[nH]c2c1	0.7	0.18
Cn1nc(-c2ccc(OCC(=O)Nc3cccnc3)cc2)c2ccccc2c1=O	1.1	0.6
CCOC(=O)c1ccc2c(c1)n(CCO)c(C)[n+]2CC	0.03	0.21
CCN(CC)CCNC(=O)Cc1nn(CC)c(=O)c2ccccc12	1	-1.1
CC(=O)Nc1ccccc1-c1nc2ccccc2nc1OCC(=O)c1ccc(Br)cc1	0.71	0.46
Cc1ccccc1C(OCC(O)CN1CCC(C(N)=O)CC1)c1ccccc1 (configuration not stated)	1.3	1.4
COc1cc(/C=C/CN2CCN(CCC(C)C)C(CCO)C2)ccc1O (configuration not stated)	2.2	-2.1
Cc1nn(-c2ccc(C(F)(F)F)cn2)c(C)c1Oc1ccccc1O	0.05	-0.76
CCOC(=O)/C(=C/c1c[nH]c2ccccc12)NC(C)=O	2	2.1
CCc1cccc2c(C(=O)CN3C(=O)NC4(CCc5ccccc54)C3=O)c[nH]c12 (configuration not stated)	4.8	-2.1
CC(O)CNc1nc(NCc2ccccc2)c2cnn(C)c2n1 (configuration not stated)	1.4	-1.3

Some of the compounds tested, so the mix of outcomes need not match the whole.
